# Assay outcomes as filed in PubChem BioAssay.
# FGF22 binding: FGF22 (human) thermal shift binding. AID 651658. 340,000 compounds, 1.5% hits. calls only at 9.99 µM. recombinant FGF22 thermal shift, SYPRO orange fluorescence; percent of sucrose octasulfate shift, DMSO zero;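 active means melting point raised past a set limit in the mean and every replicate; inconclusive means no clear call; three in four hits are not shown here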
# Target sequence (Q9HCT0 whole entry, looked up): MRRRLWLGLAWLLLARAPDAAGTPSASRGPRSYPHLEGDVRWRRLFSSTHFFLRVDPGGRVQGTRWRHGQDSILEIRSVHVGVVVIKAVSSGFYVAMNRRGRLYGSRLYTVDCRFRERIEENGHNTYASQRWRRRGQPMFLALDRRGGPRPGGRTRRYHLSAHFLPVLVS
# Beta2AR agonist: agonists of human beta-2 adrenergic receptor inducing internalization; Am2.2-beta2AR cells, FAP receptor internalization, flow cytometry; reference of the scale not given here; P07550; response, % (test concentration not listed); AID 504454; 340,000 compounds, 0.43% hits;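 active means response above a set limit, near 3 SD of response in nonfluorescent compounds, cut at about 42% in these data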;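 further: stock transfer was 100 nL into about 11 µL; a reference agonist was the positive control; negative values mostly stem from fluorescent compounds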
# Target sequence (P07550 whole entry, looked up): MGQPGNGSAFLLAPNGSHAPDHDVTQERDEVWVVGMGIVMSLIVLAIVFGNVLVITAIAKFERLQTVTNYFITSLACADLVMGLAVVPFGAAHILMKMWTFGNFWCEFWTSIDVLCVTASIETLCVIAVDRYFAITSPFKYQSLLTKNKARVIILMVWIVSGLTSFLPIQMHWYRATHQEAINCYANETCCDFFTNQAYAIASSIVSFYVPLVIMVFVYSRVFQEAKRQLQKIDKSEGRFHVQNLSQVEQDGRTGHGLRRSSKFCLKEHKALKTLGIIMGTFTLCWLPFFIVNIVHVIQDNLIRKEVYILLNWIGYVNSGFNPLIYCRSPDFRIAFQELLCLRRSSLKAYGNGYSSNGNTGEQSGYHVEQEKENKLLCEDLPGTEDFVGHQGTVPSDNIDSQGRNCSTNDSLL
# LANA-H2B inh: blocks KSHV LANA binding to histone H2A/H2B; Q9QR71; cell-free LANA-H2A/H2B peptide, fluorescence polarization; inhibition, % (no concentration beside the values); 320,000 compounds, 0.6% hits; AID 2629; in the data active means inhibition mostly above about 10%, no sharp cut-off; inactive means mostly below about 6.7%;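 further: stock transfer was 7.5 nL into about 10 µL; 0% = median of vehicle wells and 100% = median of positive control wells; one replicate is shown; the record names a cut of 25% in any replicate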
# HNF4A DNA FP: change in binding of human HNF4 alpha to DNA | 360,000 compounds, 0.3% hits | P41235 | activity change, % at 10 µM | HNF4a-FITC DNA binding, fluorescence polarization, 1 h | AID 1224865; in the data active means activity change above about 30%, passing the limit was not always enough;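 further: controls were the assay level and a saturating level of protein; the project sought stronger binding though the title names inhibitors; some compounds called inactive have numbers as strong as hits; positive values seem to mean higher polarization but the record does not say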
# Target sequence (P41235 whole entry, looked up): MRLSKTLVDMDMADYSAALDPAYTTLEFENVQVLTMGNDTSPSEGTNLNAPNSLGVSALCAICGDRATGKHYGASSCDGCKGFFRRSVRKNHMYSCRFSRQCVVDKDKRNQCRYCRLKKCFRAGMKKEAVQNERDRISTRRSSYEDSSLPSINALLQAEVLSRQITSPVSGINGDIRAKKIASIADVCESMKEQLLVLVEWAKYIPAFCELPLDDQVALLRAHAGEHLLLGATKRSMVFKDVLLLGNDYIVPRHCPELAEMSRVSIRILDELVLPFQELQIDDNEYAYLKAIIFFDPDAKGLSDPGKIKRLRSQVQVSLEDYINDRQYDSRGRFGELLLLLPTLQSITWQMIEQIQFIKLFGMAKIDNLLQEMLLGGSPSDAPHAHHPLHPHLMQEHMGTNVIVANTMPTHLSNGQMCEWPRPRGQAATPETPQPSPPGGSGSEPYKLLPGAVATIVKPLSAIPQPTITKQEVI
# ALR inh: blocks human ALR sulfhydryl oxidase activity. purified ALR, DTT oxidation, H2O2 HRP-luminol luminescence. inhibition, % (no concentration beside the values). 290,000 compounds, 3.8% hits. AID 485317;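 active means mean and each replicate at 75% or more; inconclusive means only one of the two met; inactive means neither met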;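 further: stock transfer was 7.5 nL into about 7.5 µL; 0% = neutral wells and 100% = wells with inactivated enzyme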
# UCH37 inh: human UCH37 deubiquitinating enzyme inhibition. Q9Y5K5. purified proteasome/UCH37, Ub-AMC cleavage fluorescence. inhibition, % (no concentration beside the values). 330,000 compounds, 0.33% hits;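 active means mean of two replicates above 20%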;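 further: 0% = compound-free wells with enzyme and 100% = wells lacking proteasome; stock transfer was 100 nL into about 20 µL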
#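 Material: Human UCH37 enzyme supplied as purified proteasome complex | Schedule: 30 min compound-proteasome preincubation then 25 min substrate reaction, room temperature | Detection: AMC fluorescence from Ub-AMC cleavage, excitation 355 nm, emission 460 nm | Benchmarks: Wells without proteasome as full block, compound-free enzyme plus substrate as uninhibited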
# E coli growth: blocks Escherichia coli growth; OD600, 23 h; active compounds read low; OD600 absorbance (concentration not given with the values); 330,000 compounds, 0.21% hits;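 active means OD600 absorbance below the run mean of sample wells minus 3.6 SD, in any replicate, cut at about 0.56 in these data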;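 further: stock transfer was 300 nL into about 60 µL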
# * marks the source's active call; other numbers are inactive results; i = inactive; ? = inconclusive; · = not tested or not shown. This is a subset (hit frequency here may not be typical).
canonical_smiles	HNF4A DNA FP	LANA-H2B inh	E coli growth	FGF22 binding	UCH37 inh	ALR inh	Beta2AR agonist
CC(C)(C)c1ccc(C(=O)NCCC(=O)N2CCN(c3ncccn3)CC2)cc1	2.6	3.6	·	·	0.7	-2	-13
CCOc1ccc(-n2c(SC(C)C(=O)OC)nc3c(c2=O)SCC3)cc1 (centres undefined)	2.4	-0.6	0.65	·	5.3	-2	2
O=C1NC(=O)C(c2ccccc2)(c2ccc(Cl)cc2Cl)N1 (centres undefined)	-4.2	·	0.67	i	2.4	·	-3
O=C1/C(=C/c2ccc([N+](=O)[O-])cc2)C=C(c2ccccc2)N1c1ccccc1	25	3.3	0.68	·	6.5	-5	5
C/C(=N\NC(=O)c1ccn(C)n1)c1ccc(NC(=O)C2CCCC2)cc1	-0.1	1.9	·	·	·	0	-6
Cc1ccc(NC(=S)N2CCC(C(N)=O)(N3CCCCC3)CC2)c(C)c1	-2.2	0.0	0.69	i	1.8	·	-1
CCCCc1nnc(SC(C)C(=O)Nc2nccs2)n1C (centres undefined)	1.7	4.2	0.71	i	0.1	-21	-3
COc1ccc(/C=N/NC(=O)c2ccc3c(c2)OCO3)cc1	3.4	3.2	·	i	·	-3	-9
CC(C)C[C@@H](C(=O)NC1CCN(Cc2ccccc2)CC1)N1C(=O)N2CCc3c([nH]c4ccccc34)[C@@]2(C)C1=O	2.4	-4.9	0.66	i	1.6	-4	33
COc1ccc(N2CCN(C(=O)CSc3nnc(Cn4nnc5ccccc54)n3C)CC2)cc1	-3.2	-0.7	0.67	·	-0.2	61	-2

# Whole records, quoted from the list:
# C/C(=N\NC(=O)c1ccn(C)n1)c1ccc(NC(=O)C2CCCC2)cc1 is entered as HNF4A DNA FP: -0.1; LANA-H2B inh: 1.9; E coli growth: ·; FGF22 binding: ·; UCH37 inh: ·; ALR inh: 0; Beta2AR agonist: -6
# CCOc1ccc(-n2c(SC(C)C(=O)OC)nc3c(c2=O)SCC3)cc1 (centres undefined) is entered as HNF4A DNA FP: 2.4; LANA-H2B inh: -0.6; E coli growth: 0.65; FGF22 binding: ·; UCH37 inh: 5.3; ALR inh: -2; Beta2AR agonist: 2

# Additional records:
canonical_smiles	HNF4A DNA FP	LANA-H2B inh	E coli growth	FGF22 binding	UCH37 inh	ALR inh	Beta2AR agonist
CN(Cc1ccccc1)c1c([N+](=O)[O-])c(=O)n(C)c2ccccc12	-2.2	-8.3	0.66	i	8.2	11	-1
CN(c1ccc(C(=O)N2CCOCC2)cc1)S(=O)(=O)c1cccs1	1.8	-4.3	0.66	i	1.4	·	-4
COc1ccc(C(=O)Nc2cnn(Cc3c(F)cccc3Cl)c2)cc1OC	-2.9	-3.2	0.71	i	0.4	-28	4
Cc1ccc(C)c(OCc2cc(C(=O)NC(C)c3cnn(C)c3)no2)c1 (centres undefined)	-3.1	-1.2	0.66	i	-0.7	-2	8
COc1ccc(C(=O)C2CCCN(Cc3cccn3-c3ccccn3)C2)cc1F (centres undefined)	0.8	2.4	·	i	·	-5	4
COc1ccc2c(COC(=O)CCS(=O)(=O)c3ccccc3)cc(=O)oc2c1	4.8	0.1	0.69	·	-291	2	-7
O=C(O)c1cccc(NC(=S)N/N=C/c2c[nH]c3ccccc23)c1	-1.5	-2.4	·	i	·	98*	2
Cc1cc(C)n(-c2nc(C(F)(F)F)nc3ccccc23)n1	2.4	-3.7	0.71	i	0.4	0	2
O=C(CN1C(=O)c2ccccc2C1=O)Nc1ccccc1C(=O)NC1CCCCC1	3.7	4.8	0.72	·	4.8	1	-1
CCCCOc1ccc(C(=O)Nc2ccc(OCC(=O)N3CCOCC3)cc2)cc1	0.2	4.3	0.67	i	1.1	-4	-12
Cc1cc(O)c(S(=O)(=O)c2ccccc2)c(C)c1NS(=O)(=O)c1ccccc1	0.9	3.1	0.65	i	0.4	·	0
CCOC(=O)C1CCN(C(=O)c2cn(C)c(=O)c3cc(OC)c(OC)cc23)CC1	-3.9	-2.0	0.7	·	0.5	-16	-2
CCCCNC(=O)N(c1c(N)n(Cc2ccccc2)c(=O)[nH]c1=O)C1CCCC1	2.4	-0.6	0.7	i	2.7	10	-3
COc1cc(/C=C2/C(=O)NN(c3ccc(F)cc3)C2=O)cc(Cl)c1O	6.4	6.4	0.66	i	13	?	10
CCCCOC(=O)Nc1sc2c(c1C(=O)OC)CCC2	-3.1	1.8	0.71	·	0.7	28	6
O=C(CC(NC(=O)c1ccccc1)c1ccccc1)Nc1ccc(F)c(F)c1 (centres undefined)	2.1	-2.5	0.66	·	-2.0	-4	-2
O=C(CSc1ccc(Cl)cc1)Nc1cccc(-c2nc3ccccc3[nH]2)c1	20	·	0.71	·	-78	·	-8
Cc1nn(C(C)(C)C)c(OC(=O)c2cccs2)c1Sc1ccccc1	2.0	-1.9	0.71	·	2.6	-6	5
CC(=O)c1ccc(NC(=O)C(C)NCc2ccccc2Cl)cc1 (centres undefined)	0.4	0.6	0.68	i	-1.9	-1	-1
COc1cccc2c(=O)n(CC(=O)N3CCc4ccccc43)ccc12	1.7	0.6	0.78	i	0.5	-4	-14
Cc1cccc(C)c1NC(=S)NN(Cc1ccccc1)c1ccccc1	-4.3	-9.0	0.75	·	4.5	-1	11
COc1ccccc1N(CC(=O)N/N=C(\C)c1ccccc1O)S(=O)(=O)c1ccc(C)cc1	-4.6	-13	·	i	·	-11	6
CCC1CCCCN1CCNC(=O)C1CCN(S(=O)(=O)c2cccc3nsnc23)CC1 (centres undefined)	1.4	0.4	0.71	i	5.6	-3	5
CC(C)C(c1nnnn1Cc1ccco1)N1CCN(c2cccc(Cl)c2)CC1 (centres undefined)	3.3	-0.6	0.74	·	5.2	-13	21
COc1ccccc1CNC(=O)c1cc(-c2ccccc2C)n(CC2CC(c3cccc([N+](=O)[O-])c3)=NO2)n1 (centres undefined)	-2.6	-5.2	0.71	i	1.7	0	3
CCC(=O)Nc1nc2ccccc2n1Cc1ccc(C)cc1	-6.8	-1.9	0.71	·	3.6	-1	-13
COc1cnc(-c2ccccc2)nc1Oc1ccccc1C	-1.1	3.5	0.8	·	2.1	-2	-3
CCOc1ccccc1C(=O)Nc1nccs1	-2.6	4.5	0.72	·	1.7	·	-3
COc1cc(/C=C/C(=O)OCC(=O)NCCC2=CCCCC2)cc(OC)c1OC	5.7	0.4	0.71	i	-7.5	-4	-5
COC(=O)c1[nH]c2cc(OC)ccc2c1NC(=O)CCN1CCCC(C)(C)C1	-0.2	-7.3	0.72	·	-1.7	-5	-2
Cc1ccc(C(=O)c2ccccc2C(=O)OCC(=O)N2CCCC2)cc1	4.9	-0.6	0.67	i	-0.7	10	1
O=C(/C=C/c1ccc(F)cc1)NCC1(c2ccccc2)CCOCC1	-0.5	-5.1	0.72	i	3.6	-1	2
CS(=O)(=O)c1ccc(C(=O)Nc2ccc(N3CCOCC3)cc2)c(Cl)c1	0.3	7.9	0.69	i	-0.7	52	5
COc1ccc(Nc2nc(N)nc(CSc3n[nH]c(-c4ccccc4)n3)n2)cc1	0.1	-0.6	0.7	·	1.8	17	8
CS(=O)(=O)c1ccc(C(=O)Nc2nc(-c3ccco3)c(-c3ccco3)s2)cc1	-10	·	0.67	i	4.7	·	7
CC(NC(=O)COC(=O)c1ccc([N+](=O)[O-])s1)c1ccccc1 (centres undefined)	-1.6	6.6	0.65	·	33*	-8	10
COc1ccc2c(c1)c(C(=O)O)c(C)n2CCc1ccc(OC)c(OC)c1	0.3	-0.2	0.72	i	2.1	-5	9
Cc1ccc(CCNC(=O)C2CCN(S(=O)(=O)c3ccc4c(c3)oc(=O)n4C)CC2)cc1	-2.5	0.2	0.69	i	-0.8	-8	1
CCCn1c(SC(C)C(=O)NCC2CCCO2)nc2cc(Cl)ccc2c1=O (centres undefined)	-4.8	-4.0	0.71	i	0.9	2	-4
COc1ccc(/C=N/NC(=O)CCc2n[nH]c(=O)[nH]c2=O)cc1O	0.3	1.7	·	i	·	99*	-3
CCCCc1nc2cc(C(=O)N3CCCCC3CC(=O)OCC)ccc2o1 (centres undefined)	0.3	-2.1	0.73	i	2.0	0	-11
O=C(NC(=S)N1CCN(CCO)CC1)C12CC3CC(CC(C3)C1)C2	-0.8	-2.1	0.7	·	1.2	35	-2
Cc1ccccc1NC(=O)CCNS(=O)(=O)c1ccc2[nH]c(=O)oc2c1	0.5	3.0	0.69	i	1.7	-5	-4
Cn1nnc2c(C(N)=O)ncn2c1=O	-32	·	0.66	i	2.4	·	·
NC(=O)c1ccc(Oc2ccc(Cl)cc2)c([N+](=O)[O-])c1	0.9	-5.3	0.59	i	1.7	·	-3
CCCc1cc(C(=O)Nc2cc(C)ccc2O)no1	-1.2	5.4	0.67	i	-0.6	·	36
CCCNC(=O)c1ccccc1C(=O)NCCC	-2.9	-0.7	0.75	·	-4.9	-13	-1
Cc1cc(NC(=O)/C=C/c2ccc(Cl)cc2)no1	0.5	-1.0	0.69	·	1.1	-14	0
CC(C)(C)c1ccc(OCC(O)CN2CCCC2)cc1 (centres undefined)	6.3	-4.0	0.63	i	5.6	-1	3
C=CCc1cccc2cc(C(=O)Nc3ccc(S(=O)(=O)Nc4nnc(CC)s4)cc3)c(=O)oc12	-12	7.8	0.66	i	8.7	36	-9

# Further structures.
canonical_smiles	HNF4A DNA FP	LANA-H2B inh	E coli growth	FGF22 binding	UCH37 inh	ALR inh	Beta2AR agonist
COC(C/C=C\[C@@H](O)COCc1ccccc1)OC	4.0	·	·	i	4.1	·	-9
COCc1nnc(NC(=O)CC(C)C)s1	-1.3	0.3	0.69	·	4.7	-20	3
CN(C)c1ccc(C2N3CC4(C)CN2CC(C)(C3)C4O)cc1 (centres undefined)	-0.1	4.3	0.71	i	3.4	99*	17
c1ccc2sc(Cc3nnc4n3CCCCC4)nc2c1	-1.4	2.9	0.73	·	4.3	-9	-5
COc1ccc(C(=O)N2CCN(C3CCC(c4ccccc4)CC3)CC2)cc1OC (centres undefined)	1.7	6.3	0.7	·	4.9	-6	6
Cc1ccc(/C=N\NC(=O)Cc2noc3ccccc23)cc1	3.5	-2.0	·	i	·	·	-6
CC(C)(C)C(=O)C(Cc1ccccc1Cl)n1cncn1 (centres undefined)	11	0.3	0.72	·	6.4	-2	0
C[C@]12CCC[C@H](O1)[C@H]([C@@H](O)c1ccccc1)O2	0.0	5.4	·	·	3.7	-1	-3
CCOc1ccc(NS(=O)(=O)c2ccc(C(=O)N3CC(C)OC(C)C3)cc2)cc1 (centres undefined)	-1.0	-5.2	0.67	i	1.4	0	0
CC1CCN(CCCNC(=O)C2CCC(CNS(=O)(=O)c3cccc4nsnc34)CC2)CC1 (centres undefined)	-1.2	·	0.67	i	3.9	-4	-8
Cc1ccc(-c2ccc(C(=O)Nc3cccc(F)c3)o2)c2ccccc12	2.0	-10	0.69	i	-31	-21	5
CCN(C(=O)C(C)Sc1ccc(S(=O)(=O)N2CCOCC2)cn1)c1ccccc1 (centres undefined)	-0.9	13	0.64	i	-4.3	·	9
COc1ccccc1NC(=O)C1CCCN(C(=O)NCc2ccccc2)C1 (centres undefined)	-1.7	-3.9	0.64	i	0.2	-1	0
Nc1nc(NCc2ccco2)nc(N2CCN(Cc3ccccc3)CC2)c1[N+](=O)[O-]	0.3	-3.4	0.67	i	4.3	10	5
O=S(=O)(c1ccccc1Br)N1CCN(c2ncccn2)CC1	-1.9	-1.2	0.69	i	2.3	·	-4
CCOC(=O)c1cnc2ccc(OCC)cc2c1NCc1cccnc1	-1.8	·	0.7	i	-30	·	-25
CC(C)(C)C(=O)Nc1c2c(nn1-c1ccccc1)CSC2	1.1	-1.4	0.74	i	2.1	-2	4
CC(C)N(C(=O)CN1C(=O)NC2(CCCCCC2)C1=O)C(C)C	0.8	0.5	0.73	·	-0.6	-11	0
